Screening data: PubChem, several laboratories
Beta apoptosis = inhibitors of cytokine-induced beta cell apoptosis, primary screen, luminescence; 0.8% of 300,000 active; protection from apoptosis, % (test concentration not listed); INS-1E cytokine-induced death, ATP luminescence, 48 h; percent of positive-control rescue, neutral wells zero;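 active = all replicates at 75% or more, or half of them and the mean; inconclusive = half reach 75% but not the mean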;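 also: 0% = cytokine-treated negative control wells and 100% = positive control rescue; higher means more ATP so stronger rescue from cytokine killing; wells of about 40 µL received 100 nL stock; the first replicate is given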
T cruzi repl = inhibitors of intracellular T. cruzi growth, primary screen, luminescence, NIH3T3 host cells | T. cruzi beta-gal in NIH3T3, 90 h | inhibition, % (no concentration beside the values) | 1.4% of 300,000 active | AID 1885, 2009;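 active = mean inhibition across valid replicates above about 55%, limit read from the data; inconclusive = mean below that limit but half or more replicates reach it; inactive = mean below it, under half of replicates reach it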;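 also: signal also drops with host cell toxicity which is not excluded here; 0% = plate median of DMSO wells and 100% = zero luminescence signal; higher percent means less beta-gal luminescence so fewer parasites; stock transfer was 50 nL into about 50 µL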
ALR inh = inhibitors of human ALR sulfhydryl oxidase, primary screen, biochemical, H2O2 detection, HRP-luminol luminescence, single point | inhibition, % (no concentration beside the values) | 3.8% of 290,000 active | FAD-linked sulfhydryl oxidase ALR (Homo sapiens), P55789 | AID 485317, 2010 | purified ALR, DTT oxidation;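 active = mean and each replicate at 75% or more; inconclusive = only one of the two met; inactive = neither met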;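 also: stock transfer was 7.5 nL into about 7.5 µL; 0% = neutral wells and 100% = wells with inactivated enzyme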
LANA-H2A inh = blockers of LANA interaction with H2A/H2B – biochemical, FP readout, HTS, primary screen; Protein LANA1 (Human herpesvirus 8 type P (isolate GK18)), Q9QR71; cell-free LANA-H2A/H2B peptide, fluorescence polarization; inhibition, % (no concentration beside the values); 0.6% of 320,000 active; AID 2629, 2010; in the data active = inhibition mostly above about 10%, no sharp cut-off; inactive = mostly below about 6.7%;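 also: stock transfer was 7.5 nL into about 10 µL; 0% = median of vehicle wells and 100% = median of positive control wells; one replicate is shown; the record names a cut of 25% in any replicate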
Target sequence (Q9QR71 whole entry, looked up): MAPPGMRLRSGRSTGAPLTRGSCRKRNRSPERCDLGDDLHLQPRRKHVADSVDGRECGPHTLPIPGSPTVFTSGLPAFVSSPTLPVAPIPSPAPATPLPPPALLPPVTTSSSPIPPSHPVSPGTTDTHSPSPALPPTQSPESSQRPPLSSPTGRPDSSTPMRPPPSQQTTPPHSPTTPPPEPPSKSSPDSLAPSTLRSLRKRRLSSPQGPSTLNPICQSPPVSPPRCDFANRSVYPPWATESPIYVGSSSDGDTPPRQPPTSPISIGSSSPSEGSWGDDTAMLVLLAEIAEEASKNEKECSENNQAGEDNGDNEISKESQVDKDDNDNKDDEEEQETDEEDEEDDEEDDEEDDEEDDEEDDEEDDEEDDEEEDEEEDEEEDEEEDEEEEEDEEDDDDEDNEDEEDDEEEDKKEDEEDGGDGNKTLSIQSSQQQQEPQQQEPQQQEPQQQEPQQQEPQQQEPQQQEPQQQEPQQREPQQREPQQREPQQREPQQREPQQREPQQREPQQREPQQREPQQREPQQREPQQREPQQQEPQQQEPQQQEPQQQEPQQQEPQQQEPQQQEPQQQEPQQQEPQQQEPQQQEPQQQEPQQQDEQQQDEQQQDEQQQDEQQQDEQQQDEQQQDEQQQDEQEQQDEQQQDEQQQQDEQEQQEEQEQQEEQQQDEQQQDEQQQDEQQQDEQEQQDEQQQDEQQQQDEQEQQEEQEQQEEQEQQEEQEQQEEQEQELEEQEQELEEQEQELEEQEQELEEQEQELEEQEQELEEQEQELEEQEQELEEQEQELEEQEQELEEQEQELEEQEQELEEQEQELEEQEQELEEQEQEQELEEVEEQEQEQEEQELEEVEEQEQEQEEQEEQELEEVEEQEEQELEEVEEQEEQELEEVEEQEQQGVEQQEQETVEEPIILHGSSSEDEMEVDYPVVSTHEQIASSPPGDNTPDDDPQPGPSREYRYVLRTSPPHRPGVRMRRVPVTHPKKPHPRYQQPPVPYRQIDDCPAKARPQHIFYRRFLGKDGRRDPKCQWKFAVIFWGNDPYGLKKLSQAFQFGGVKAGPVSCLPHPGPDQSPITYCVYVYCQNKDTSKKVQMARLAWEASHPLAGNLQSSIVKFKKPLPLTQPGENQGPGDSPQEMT
Ecoli rRNA inh = reduced GFP signal of wild-type E. coli, primary screen, bacterial rRNA inhibitor project, GFP/RFP fluorescence, OD600, single point; E. coli WT GFP vs humanized-ribosome RFP mutants, 24 h; stronger effect = lower value; DMSO median 0, no signal -100; GFP signal change (wild-type ribosome), % (test concentration not listed); 1.6% of 350,000 active; AID 720706, 2013;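 active = significant combined selectivity score with lowered wild-type GFP, culture density cut under 30%, mutant RFP and density less affected; inactive = any of these conditions unmet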; also: one replicate is shown; some compounds called inactive have numbers as strong as hits
Bfl-1 A1 inh = caspase 3/7 activation in MEF A1-2A-BIM cells, primary screen, A1 inhibitor project, cell-based, luminescence, HTS; Caspase-Glo 3/7 luminescence, 3 h; percent of clofoctol response, vehicle zero; caspase activation, % (concentration not given with the values); 0.066% of 330,000 active; AID 2462, 2010;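 active = over half of replicate activation scores above 10%, or exactly half above 10 with the replicate mean above 10; inconclusive = replicate mean below 10 yet half the replicates above 10; inactive = over half of replicates below 10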;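 also: wells of about 30 µL received 50 nL stock; many hits fall short of the cut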
Calb FLC = C. albicans growth inhibition with fluconazole, primary screen, CaCi-2 strain, Alamar Blue fluorescence. C. albicans CaCi-2 (fluconazole-resistant clinical isolate) + fluconazole, 48 h. 0.57% of 300,000 active. growth inhibition, % (concentration not given with the values);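 active = most replicates above 75%; inconclusive = exactly half above 75%; inactive = most below 75%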;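 also: all wells also contain fluconazole at 8 µg/ml as a sub-toxic cotreatment; 0% = median of DMSO wells and 100% = median of geldanamycin control wells; wells of about 8 µL received 7.5 nL stock; the first replicate is given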
Beta2AR agonist = beta2AR agonists driving receptor internalization, primary screen, cell-based, FAP fluorogen, flow cytometry | Am2.2-beta2AR cells; reference of the scale not given here | response, % (test concentration not listed) | 0.43% of 340,000 active | AID 504454, 2011;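 active = response above a set limit, near 3 SD of response in nonfluorescent compounds, cut at about 42% in these data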;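 also: stock transfer was 100 nL into about 11 µL; a reference agonist was the positive control; negative values mostly stem from fluorescent compounds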
Ecoli rRNA inh OD600 = further read-out of Ecoli rRNA inh, marked with its call; OD600 change, %; measured here: OD600 growth;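 optical density of the mix in the first replicate; 0 = DMSO median and -100 = no signal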
Ecoli rRNA inh RFP = further read-out of Ecoli rRNA inh, marked with its call; RFP signal change, %; measured here: RFP humanized mutant strains;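 first replicate; 0 = DMSO median and -100 = no signal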
* = called active by the depositor. This is a subset. The share of hits here may be higher or lower than overall.

Sample of the layout, 2 compounds:
How did O=C(Nc1ccccc1)N1CCc2scc[n+]2-c2ccccc21 do in these assays?
Beta apoptosis: -7; T cruzi repl: -4; ALR inh: -5; LANA-H2A inh: 1.6; Ecoli rRNA inh: 15; Bfl-1 A1 inh: 0.2; Calb FLC: -6; Beta2AR agonist: 7; Ecoli rRNA inh OD600: 12; Ecoli rRNA inh RFP: 2.5

How did CCOC(=O)c1ccc(NC(=O)CN2CCN(c3ccccc3)CC2)cc1 do in these assays?
T cruzi repl: -13; ALR inh: 2; LANA-H2A inh: -1.9; Bfl-1 A1 inh: -1.2; Calb FLC: 16; Beta2AR agonist: 20

Results (from the top)
How did O=C(Nc1ccccc1)N1CCc2scc[n+]2-c2ccccc21 do in these assays?
Beta apoptosis: -7; T cruzi repl: -4; ALR inh: -5; LANA-H2A inh: 1.6; Ecoli rRNA inh: 15; Bfl-1 A1 inh: 0.2; Calb FLC: -6; Beta2AR agonist: 7; Ecoli rRNA inh OD600: 12; Ecoli rRNA inh RFP: 2.5

How did CCOC(=O)c1ccc(NC(=O)CN2CCN(c3ccccc3)CC2)cc1 do in these assays?
T cruzi repl: -13; ALR inh: 2; LANA-H2A inh: -1.9; Bfl-1 A1 inh: -1.2; Calb FLC: 16; Beta2AR agonist: 20

How did CC(=O)NCCc1nc2cc(NC(=O)COc3cccc(C)c3)ccc2n1C do in these assays?
Beta apoptosis: -5; T cruzi repl: -19; ALR inh: 0; LANA-H2A inh: 3.4; Ecoli rRNA inh: 2; Bfl-1 A1 inh: 0.9; Calb FLC: -11; Beta2AR agonist: -6; Ecoli rRNA inh OD600: 7; Ecoli rRNA inh RFP: -0.9

Results for C=CCn1c(SCC(=O)Nc2cccnc2Cl)nnc1-c1ccccc1F ?
Beta apoptosis: -24; T cruzi repl: 15; LANA-H2A inh: -7.4; Bfl-1 A1 inh: 0.6; Calb FLC: 12; Beta2AR agonist: -1

Results for COc1ccc2c(c1)c1c(n2C)[C@@H]2CC=C(CO)[C@@H](C1)N2C ?
Beta apoptosis: -5; ALR inh: -15; LANA-H2A inh: -4.9; Ecoli rRNA inh: 3; Bfl-1 A1 inh: 0.6; Beta2AR agonist: -4; Ecoli rRNA inh OD600: 12; Ecoli rRNA inh RFP: -1.0

What do the screens show for `COc1ccc(CCn2c(=N)c(S(=O)(=O)c3ccccc3)cc3c(=O)n4ccccc4nc32)cc1`?
Beta apoptosis: 0; T cruzi repl: 8; ALR inh: -14; LANA-H2A inh: 16; Ecoli rRNA inh: 17; Bfl-1 A1 inh: 0.0; Calb FLC: 0; Beta2AR agonist: 20; Ecoli rRNA inh OD600: 10; Ecoli rRNA inh RFP: 2.6

How did O=C(Cc1coc2ccc3ccccc3c12)NCc1ccccc1 do in these assays?
Beta apoptosis: -5; T cruzi repl: 19; ALR inh: -23; LANA-H2A inh: 3.3; Ecoli rRNA inh: -26*; Bfl-1 A1 inh: -0.3; Calb FLC: 15; Beta2AR agonist: -5; Ecoli rRNA inh OD600: -3.0*; Ecoli rRNA inh RFP: 9.5*

Results for Cc1cc(C)c(S(=O)(=O)NCc2ccccn2)cc1C ?
T cruzi repl: -9; ALR inh: -22; LANA-H2A inh: -0.6; Ecoli rRNA inh: -4; Bfl-1 A1 inh: -0.5; Calb FLC: 1; Beta2AR agonist: 3; Ecoli rRNA inh OD600: -1; Ecoli rRNA inh RFP: 0.6

What do the screens show for `O=C(CN1CCN(S(=O)(=O)c2ccc(Cl)cc2)CC1)Nc1ccc2c(c1)CCC2`?
Beta apoptosis: -1; T cruzi repl: 6; ALR inh: -8; LANA-H2A inh: 5.4; Ecoli rRNA inh: -21*; Bfl-1 A1 inh: 0.4; Calb FLC: 21; Beta2AR agonist: -2; Ecoli rRNA inh OD600: -12*; Ecoli rRNA inh RFP: 0.4*

How did COc1cccc(CNC(=O)CCS(=O)(=O)c2cccs2)c1 do in these assays?
Beta apoptosis: -1; T cruzi repl: 11; LANA-H2A inh: 1.4; Bfl-1 A1 inh: 0.3; Calb FLC: -13; Beta2AR agonist: -6

Results for COc1cc(C(=O)Nc2ccc(C)cc2)c(-n2cnnn2)cc1OC ?
Beta apoptosis: 0; T cruzi repl: -12; ALR inh: -3; LANA-H2A inh: 5.3; Ecoli rRNA inh: -4; Bfl-1 A1 inh: 0.3; Calb FLC: 32; Beta2AR agonist: 2; Ecoli rRNA inh OD600: 5; Ecoli rRNA inh RFP: -0.9

How did CCOCCCNC(=O)C(Cc1ccccc1)NS(=O)(=O)c1ccc2c(c1)c(=O)n(C)c(=O)n2C (stereo not drawn) do in these assays?
Beta apoptosis: -6; T cruzi repl: -7; ALR inh: -1; LANA-H2A inh: -3.1; Ecoli rRNA inh: 7; Bfl-1 A1 inh: -0.5; Calb FLC: -2; Beta2AR agonist: 0; Ecoli rRNA inh OD600: 1; Ecoli rRNA inh RFP: -0.8

How did CCOc1ccccc1N1CCN(c2nc3ccccc3nc2C(C#N)C(=O)OC(C)C)CC1 (stereo not drawn) do in these assays?
Beta apoptosis: 11; T cruzi repl: inconclusive; ALR inh: -25; LANA-H2A inh: 2.2; Ecoli rRNA inh: 8; Bfl-1 A1 inh: 0.1; Calb FLC: -11; Beta2AR agonist: -4; Ecoli rRNA inh OD600: -7; Ecoli rRNA inh RFP: -6.2

What do the screens show for `CCOC(=O)N1CCN(CC(=O)c2ccc3c(c2)CCN3C(C)=O)CC1`?
Beta apoptosis: 5; T cruzi repl: -5; ALR inh: -3; LANA-H2A inh: -1.3; Ecoli rRNA inh: -2; Bfl-1 A1 inh: 0.8; Calb FLC: 4; Beta2AR agonist: -4; Ecoli rRNA inh OD600: 6; Ecoli rRNA inh RFP: -1.5

How did CC1(C)C(=O)OC(/C=C/c2cccc([N+](=O)[O-])c2)C(C)(C)C1=O (stereo not drawn) do in these assays?
Beta apoptosis: 2; T cruzi repl: -5; ALR inh: -2; LANA-H2A inh: 0.6; Ecoli rRNA inh: 0; Bfl-1 A1 inh: 0.2; Calb FLC: 1; Beta2AR agonist: 10; Ecoli rRNA inh OD600: -2; Ecoli rRNA inh RFP: -1.1

Results for Cc1ccc2nc(SCC(=O)N3CCN(c4ccccc4)CC3)[nH]c2c1 ?
Beta apoptosis: 1; T cruzi repl: -2; LANA-H2A inh: -1.2; Ecoli rRNA inh: 4; Bfl-1 A1 inh: 0.4; Calb FLC: 0; Beta2AR agonist: -4; Ecoli rRNA inh OD600: 3; Ecoli rRNA inh RFP: 8.7

What do the screens show for `N#Cc1cc2ccccc2nc1N`?
Beta apoptosis: 0; T cruzi repl: -11; ALR inh: 32; LANA-H2A inh: 1.0; Ecoli rRNA inh: 12; Bfl-1 A1 inh: 0.2; Calb FLC: -4; Beta2AR agonist: -5; Ecoli rRNA inh OD600: -17; Ecoli rRNA inh RFP: 0.5

Results for O=C(Nc1ccccc1N1CCCCC1)c1ccc(-c2cccc(Cl)c2)o1 ?
Beta apoptosis: 4; T cruzi repl: 36; ALR inh: 3; LANA-H2A inh: 5.4; Ecoli rRNA inh: 6; Bfl-1 A1 inh: -0.8; Calb FLC: -8; Beta2AR agonist: -11; Ecoli rRNA inh OD600: 12; Ecoli rRNA inh RFP: 3.0

What do the screens show for `COc1cc(CN2CCNC(=O)C2CC(=O)NCCc2ncccc2C)cc(OC)c1` (stereo not drawn)?
Beta apoptosis: -1; T cruzi repl: 2; ALR inh: -8; LANA-H2A inh: -6.2; Ecoli rRNA inh: 12; Bfl-1 A1 inh: -0.5; Calb FLC: -10; Beta2AR agonist: 1; Ecoli rRNA inh OD600: 9; Ecoli rRNA inh RFP: 3.3

How did COc1cc(-c2nnc(-c3ccccc3)o2)cc(OC)c1OC do in these assays?
T cruzi repl: 15; ALR inh: -5; LANA-H2A inh: -0.8; Bfl-1 A1 inh: -0.4; Calb FLC: 13; Beta2AR agonist: -1

What do the screens show for `O=C(c1cccs1)N(Cc1ccco1)C1CCS(=O)(=O)C1` (stereo not drawn)?
Beta apoptosis: -1; T cruzi repl: -8; ALR inh: -8; LANA-H2A inh: -11; Bfl-1 A1 inh: -0.1; Calb FLC: -3; Beta2AR agonist: 3

How did Cc1onc(-c2ccccc2Cl)c1C(=O)NNC(=O)c1ccccc1F do in these assays?
Beta apoptosis: -3; T cruzi repl: -13; ALR inh: -5; LANA-H2A inh: -7.8; Ecoli rRNA inh: 4; Bfl-1 A1 inh: 1.3; Calb FLC: -8; Beta2AR agonist: -2; Ecoli rRNA inh OD600: 1; Ecoli rRNA inh RFP: -3.1

How did Cc1cc(C)c(S(=O)(=O)NCc2cccnc2)c(C)c1 do in these assays?
Beta apoptosis: 4; T cruzi repl: -14; ALR inh: -9; LANA-H2A inh: -3.7; Ecoli rRNA inh: 6; Bfl-1 A1 inh: 1.0; Calb FLC: 19; Beta2AR agonist: 3; Ecoli rRNA inh OD600: 3; Ecoli rRNA inh RFP: 3.5

Results for Cc1ccc(-c2csc3ncn(CC(=O)O)c(=O)c23)cc1C ?
Beta apoptosis: -5; T cruzi repl: -11; ALR inh: 16; LANA-H2A inh: -8.1; Ecoli rRNA inh: 2; Bfl-1 A1 inh: 0.6; Calb FLC: -19; Beta2AR agonist: 5; Ecoli rRNA inh OD600: 11; Ecoli rRNA inh RFP: 0.1

What do the screens show for `CCc1ccc2[nH]c(=O)c(CN(CCN3CCCC3)C(=O)NC3CCCCC3)cc2c1`?
Beta apoptosis: 1; T cruzi repl: 5; ALR inh: 45; LANA-H2A inh: -6.2; Bfl-1 A1 inh: 0.2; Calb FLC: -1; Beta2AR agonist: -7

Results for COc1ccc(CCNC(=O)c2ccc([N+](=O)[O-])cc2Cl)cc1OC ?
Beta apoptosis: -2; T cruzi repl: 7; ALR inh: -19; LANA-H2A inh: 12; Ecoli rRNA inh: -3; Bfl-1 A1 inh: 0.2; Calb FLC: 11; Beta2AR agonist: -1; Ecoli rRNA inh OD600: 3; Ecoli rRNA inh RFP: -0.5

Results for COc1ccc(C(=O)NC(=S)N(CCC(C)C)c2c(N)n(Cc3ccccc3)c(=O)[nH]c2=O)cc1 ?
Beta apoptosis: -6; T cruzi repl: -6; ALR inh: -10; LANA-H2A inh: -3.0; Ecoli rRNA inh: -4; Bfl-1 A1 inh: 1.0; Calb FLC: -3; Beta2AR agonist: -2; Ecoli rRNA inh OD600: -12; Ecoli rRNA inh RFP: 6.4

What do the screens show for `CCCCN1C(C(=O)Nc2cc(C)on2)=C(O)c2ccccc2S1(=O)=O`?
Beta apoptosis: 5; T cruzi repl: 1; ALR inh: -2; LANA-H2A inh: 0.5; Ecoli rRNA inh: 4; Bfl-1 A1 inh: -1.0; Calb FLC: 9; Beta2AR agonist: 5; Ecoli rRNA inh OD600: -2; Ecoli rRNA inh RFP: 7.0
